Bioassay records: PubChem BioAssay, several laboratories
PrP 5UTR inh: suppresses PrP 5' UTR mRNA reporter expression | cell-based PrP 5' UTR mRNA reporter, plate reader | inhibition, % (concentration not given with the values) | AID 488862 | 340,000 tested, 0.35% active;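 active = every replicate at 50% or more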;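 also: 0 = median of the neutral control wells; tested in H4 reporter cells; numbers are from one replicate; inactives centre near -14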
Mtb hypoxia inh: inhibitors of hypoxia-regulated fluorescent reporter in Mycobacterium tuberculosis. M. tuberculosis hypoxia-regulated fluorescent reporter, fluorescence. fluorescence inhibition, % (concentration not given with the values). 300,000 tested, 0.1% active;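 active = 35 to 45% if threefold the growth effect, above 45% if 1.5-fold the growth effect; inactive = the rest, general growth blockers included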;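 also: wells of about 50 µL received 100 nL stock; 0% = vehicle wells and 100% = reference inhibitor wells; whole bacteria with a GFP reporter of the hypoxia response; strong numbers were not always called active; many hits fall short of the cut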
Sa RN4220 lethal: kills Staphylococcus aureus RN4220; S. aureus RN4220 growth, OD600, 16 h; inhibition, % (concentration not given with the values); 330,000 tested, 0.33% active;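 active = z-score of -3 or lower and OD600 up to 0.18 on both plates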;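 also: plate controls were untreated cells for no effect and reference antibiotic for full effect; stock transfer was 100 nL into about 80 µL; one replicate is shown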
Sa ugtP lethal: compounds lethal to S. aureus RN4220 ugtP deletion mutant | growth inhibition, % (no concentration beside the values) | 330,000 tested, 0.54% active | OD600 growth, 16 h; some inactives read as strong as hits | AID 1259309;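 active = z-score under -3 and OD600 up to 0.15 on both plates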;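 also: plate controls were untreated wells for no effect and antibiotic for full effect; wells of about 80 µL received 100 nL stock; the first replicate is given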
BJeLR viability: kills HRASV12-expressing BJeLR cells. BJeLR (HRASV12) viability, CellTiter-Glo ATP luminescence, 48 h; reference of the scale not given here. inhibition, % (test concentration not listed). 300,000 tested, 0.17% active. AID 1554;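 active = replicate mean above 50%; inconclusive = above 50% but judged a plate artefact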;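 also: 50 nL library stock added to about 25 µL; numbers are from one replicate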
Autofluor counter: flagged as autofluorescent in microsphere protease counterscreen | fluorescence intensity (test concentration not listed) | compound autofluorescence counterscreen, microsphere flow cytometry; hits give high values | 360,000 tested, 3.1% active;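 active = at least 3 SD above the mean of all compounds, about 16000 in these data; inconclusive = too few beads counted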;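 also: 100 nL of 1 mM stock went into each well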
Mtb hypoxia inh growth: further read-out of Mtb hypoxia inh, marked with its call; growth inhibition, %; measured here: M. tuberculosis growth (absorbance);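 0% = vehicle and 100% = reference antibiotic; read after six days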
An asterisk follows results filed as active; ? = inconclusive; nt = not tested or not shown.

1	Cc1cc(C)c(OCCCCCNCCO)c(C)c1
2	COc1ccc(CCN2C(=O)C3C4C=CC(C3C2=O)C2C(=O)N(CCc3ccc(OC)c(OC)c3)C(=O)C42)cc1OC (configuration not stated)
3	O=C(Nc1nncs1)c1ccc(N2C(=O)C3C4C=CC(C4)C3C2=O)cc1 (configuration not stated)
4	Cn1c2c(c(=O)n(C)c1=O)C(CC(=O)Nc1ccc(F)cc1)C(=O)N2 (configuration not stated)
5	COc1ccc(S(=O)(=O)N2CCCCC2)cc1NC(=O)c1cccc(S(=O)(=O)N2CCOCC2)c1
6	C=CCn1c(NC(=O)c2ccc(C)cc2)c(C#N)sc1=N
7	COC(=O)c1ccc(-c2noc(CN3CCCCC3c3nccn3C)n2)cc1 (configuration not stated)
8	O=C(COC(=O)Cc1ccccc1F)Nc1ccc2[nH]c(=O)[nH]c2c1

assay / compound	1	2	3	4	5	6	7	8
PrP 5UTR inh	-13	-18	-8	3	-6	9	-11	-13
Mtb hypoxia inh	11	8	8	2	4	-3	-14	-1
Mtb hypoxia inh growth	-1	14	8	7	2	-5	-5	3
Sa RN4220 lethal	5.0	1.7	1.8	8.0	0.7	0.8	3.1	-1.6
Sa ugtP lethal	18	1	-1	17	7	-6	3	-1
BJeLR viability	11	10	2	3	nt	nt	1	4
Autofluor counter	9450	19991*	4432	4306	?	3231	3448	nt

9	CSc1nsc(SC)c1NC(=O)OCc1ccccc1
10	O=C1C(=C(c2ccccc2)c2ccccc2)Nc2ccccc21
11	CCc1c(C)nc(SCC(=O)N2CC(C)OC(C)C2)[nH]c1=O (configuration not stated)
12	O=C(NCc1ccc(Cl)cc1)c1ccc(Br)o1
13	CC(C)(C)C(=O)N(CCN(C(=O)C(C)(C)C)c1ccccc1)c1ccccc1
14	Cc1ccc2nc(-c3ccccn3)c(Nc3ccccc3C)n2c1
15	Nc1nnc(-c2cc3ccccc3oc2=O)s1
16	CC1(C)C(c2cccs2)=[N+]([O-])C2(CCCCC/C2=N\NC(N)=S)N1O (configuration not stated)

assay / compound	9	10	11	12	13	14	15	16
PrP 5UTR inh	-4	-13	-12	-8	-5	-19	-32	-17
Mtb hypoxia inh	4	15	-5	nt	4	7	nt	nt
Mtb hypoxia inh growth	5	9	-3	nt	2	12	nt	nt
Sa RN4220 lethal	6.4	5.4	0.8	7.0	4.5	67	-0.9	nt
Sa ugtP lethal	5	8	3	1	3	64	6	nt
BJeLR viability	-13	-3	-4	-1	-9	-1	-6	-3
Autofluor counter	10862	3167	?	3137	23201*	4021	4215	2882

17	COc1ccc(C2C(C(=O)c3cccs3)=C(O)C(=O)N2c2nncs2)cc1 (configuration not stated)
18	CN(C)S(=O)(=O)c1ccc(C(=O)N2CCOCC2)cc1
19	O=C(CSc1nc(N2CCCCC2)nc(N2CCCCC2)n1)c1ccccc1
20	Cc1ccc(C(=O)N2NC(c3ccc(F)cc3)C3C(=O)N(c4ccc(C)cc4)C(=O)C32)cc1 (configuration not stated)
21	O=C1/C(=C\c2ccc(O)c(O)c2)SC(=S)N1Cc1ccccc1
22	COC(=O)Cc1ccc(NC(=O)C(c2ccccc2)c2ccccc2)cc1
23	CCc1ccc(-c2cc(C)no2)cc1S(=O)(=O)NCc1ccc(OC)c(OC)c1
24	O=C1c2ccc3c4c(ccc(c24)C(=O)N1c1cccc(O)c1)CC3

assay / compound	17	18	19	20	21	22	23	24
PrP 5UTR inh	-38	0	-11	-8	-3	-3	-7	-5
Mtb hypoxia inh	-1	8	nt	nt	21	-1	7	-8
Mtb hypoxia inh growth	6	6	nt	nt	-4	6	3	2
Sa RN4220 lethal	7.9	4.4	-4.4	5.6	76	-0.7	8.0	-5.3
Sa ugtP lethal	4	-1	22	14	99*	16	5	-12
BJeLR viability	5	3	-9	-9	-3	2	0	11
Autofluor counter	22479*	9121	3591	6005	4080	2540	5001	2093

25	Cc1ccc(NC(=O)c2cc(S(=O)(=O)N3CCCCC3)cs2)cc1
26	O=C(COC(=O)c1cnccn1)c1ccc(Cl)cc1
27	COC(=O)c1cc(S(=O)(=O)NC2CCC(C)CC2)cn1C (configuration not stated)
28	CN(CC(=O)Nc1ccccc1)CC(=O)Nc1ccccc1Cl
29	Oc1ccc(-c2csc(Nc3ccc4c(c3)OCO4)n2)c(O)c1
30	CC(C)OC(=O)CN1C(=O)C(C)(C)Oc2ccc(C(=O)NC3CC3)cc21
31	COCC(=O)N(Cc1ccc(OC)cc1)Cc1nc2ccccc2c(=O)[nH]1
32	O=C(CSc1nc(O)c(Cc2ccccc2F)c(=O)[nH]1)N1CCCCCC1

assay / compound	25	26	27	28	29	30	31	32
PrP 5UTR inh	-1	-22	-20	-31	-150	-7	0	-8
Mtb hypoxia inh	-2	9	0	3	2	-3	-3	-3
Mtb hypoxia inh growth	-10	12	1	8	-1	13	8	-15
Sa RN4220 lethal	-0.4	4.5	1.4	-0.8	-1.8	3.9	0.1	0.6
Sa ugtP lethal	5	1	0	0	-5	0	-1	1
BJeLR viability	5	nt	4	-6	nt	-13	3	-2
Autofluor counter	6572	4132	5309	3656	3471	9008	4646	3097

33	CCCN1CNC(=S)N(CCc2ccccc2)C1
34	CC(=NNS(=O)(=O)c1ccc(Br)cc1)c1ccc(C)o1
35	COCCCNC(=O)c1ccc(Cn2c(=O)c3ccccc3n(Cc3ccc(C)cc3)c2=O)cc1
36	CCCS(=O)(=O)c1c(S(=O)(=O)CCC)c2c3ccccc3ccn2c1C(N)=O
37	COc1ccc(C2CC(=O)C=C(c3cccc(F)c3OC)C2)cc1 (configuration not stated)
38	Cc1ccc(S(=O)(=O)N2CCC(Oc3cccc(C(F)(F)F)c3)CC2)cc1
39	COc1cccc(-n2c(=O)c3cc(OC)c(OC)cc3n(CC(=O)Nc3cc(C)[nH]n3)c2=O)c1
40	Cc1ccc2cccc(OCC(=O)Nc3ccc(N4CCOCC4)cc3)c2n1

assay / compound	33	34	35	36	37	38	39	40
PrP 5UTR inh	-4	nt	-16	-16	nt	-19	-53	-1
Mtb hypoxia inh	-5	1	1	6	1	5	2	18
Mtb hypoxia inh growth	-1	11	8	2	-1	-2	2	9
Sa RN4220 lethal	9.1	6.3	4.2	2.4	-1.6	-3.4	4.4	0.5
Sa ugtP lethal	7	-1	0	4	0	31	6	-4
BJeLR viability	-6	nt	-22	-7	nt	5	-2	-1
Autofluor counter	2068	nt	3396	8860	nt	3966	10173	4623

41	Fc1ccc(C[n+]2csc3ccccc32)cc1
42	COc1cccc(N2C(CC(C)=O)c3ccccc3S2(=O)=O)c1 (configuration not stated)
43	N#C/C(=C(/O)CN1CCOCC1)c1nc2ccccc2s1
44	COc1ccc(NC(=O)C2CCCN2c2ccc(OC)c(OC)c2)cc1OC (configuration not stated)
45	Cc1cc(OCC(=O)OCC(=O)N2CCc3ccccc3C2)ccc1Cl
46	COc1ccc(OCc2nnc(SCC(=O)N3C(C)CCCC3C)o2)cc1 (configuration not stated)
47	CCOc1cc(N2CCOCC2)c(OCC)cc1NC(=O)c1c(-c2ccccc2Cl)noc1C
48	Cc1c(C(=O)CN2CCOCC2)[nH]c2ccccc12

assay / compound	41	42	43	44	45	46	47	48
PrP 5UTR inh	-28	nt	-6	-8	-6	2	-17	-18
Mtb hypoxia inh	nt	9	nt	nt	-8	14	12	16
Mtb hypoxia inh growth	nt	9	nt	nt	9	3	8	8
Sa RN4220 lethal	nt	4.3	nt	4.0	-2.2	6.0	3.1	-12
Sa ugtP lethal	nt	-1	nt	0	-2	9	8	-14
BJeLR viability	7	nt	-2	-4	nt	-2	-18	14
Autofluor counter	22598*	nt	3635	3021	?	3143	4196	2449

49	COc1ccccc1NC(=O)c1ccc(CN(c2cc(Cl)ccc2C)S(=O)(=O)c2ccccc2)cc1
50	CCc1cccc2c(C(=O)COC(=O)c3cccc(S(=O)(=O)N(C)C4CCCCC4)c3)c[nH]c12
51	CC(C)(C)c1ccc(COn2c(=O)c(-c3ccco3)[n+]([O-])c3ccccc32)cc1
52	Cn1ncc(Br)c1C(=O)NC1CCCCCCC1
53	COc1ccc(NC(=O)CSc2nc3[nH]ncc3c(=O)n2-c2ccccc2OC)cc1OC
54	Oc1ccc(CN2CCCCC2)nc1-c1ccccc1
55	CC(C)OCCCn1c(=O)c2ccccc2n2c(CCC(=O)NCc3ccccn3)nnc12
56	CC1CCCN(S(=O)(=O)c2ccc(N(C(=O)c3cnccn3)C(C(=O)NC3CCCCC3)c3cccs3)cc2)C1 (configuration not stated)

assay / compound	49	50	51	52	53	54	55	56
PrP 5UTR inh	-7	-18	-14	-67	-10	-12	-14	-15
Mtb hypoxia inh	8	7	5	13	3	4	6	-8
Mtb hypoxia inh growth	6	7	4	2	12	9	0	4
Sa RN4220 lethal	-4.2	-2.0	12	9.6	0.4	1.8	5.9	2.9
Sa ugtP lethal	-6	-18	-13	0	-1	-4	9	0
BJeLR viability	4	-9	6	2	0	1	1	-1
Autofluor counter	2323	2075	15002	5772	7301	4056	5477	2147

One compound at a time, as listed above:
COc1ccccc1NC(=O)c1ccc(CN(c2cc(Cl)ccc2C)S(=O)(=O)c2ccccc2)cc1 is listed with PrP 5UTR inh: -7; Mtb hypoxia inh: 8; Mtb hypoxia inh growth: 6; Sa RN4220 lethal: -4.2; Sa ugtP lethal: -6; BJeLR viability: 4; Autofluor counter: 2323
CC(C)OCCCn1c(=O)c2ccccc2n2c(CCC(=O)NCc3ccccn3)nnc12 is listed with PrP 5UTR inh: -14; Mtb hypoxia inh: 6; Mtb hypoxia inh growth: 0; Sa RN4220 lethal: 5.9; Sa ugtP lethal: 9; BJeLR viability: 1; Autofluor counter: 5477

Remaining list, next part:
57	COc1cc(/C=N/N=C(\N)c2nonc2N)cc(OC)c1O
58	COc1ccc(C(=O)C2CCCN(Cc3cnc(N4CCOCC4)s3)C2)cc1F (configuration not stated)
59	COc1ccc(NC(=O)Nc2ccccc2)cc1S(=O)(=O)N1CCCCC1
60	Cc1nnc(SCc2ccc(Cl)cc2)n1CC1CCCO1 (configuration not stated)
61	Cc1cc(C)c2sc(N)nc2c1
62	CCC(CO)Oc1cc(NCc2ccccc2)c2ncn(C3CCCC3)c2c1 (configuration not stated)
63	COc1cc2c(cc1NCc1ccccn1)oc1ccccc12
64	CCOc1cc2[nH]c(=S)n(CCc3ccc(OC)c(OC)c3)c(=O)c2cc1OCC
65	O=C(Cn1c(=O)cnc2ccccc21)N1CCN(S(=O)(=O)c2ccccc2Br)CC1

assay / compound	57	58	59	60	61	62	63	64	65
PrP 5UTR inh	-17	-12	-13	-1	-13	-14	-59	3	10
Mtb hypoxia inh	nt	6	5	3	1	4	nt	0	-8
Mtb hypoxia inh growth	nt	1	2	12	10	7	nt	-5	-2
Sa RN4220 lethal	nt	3.6	1.3	-1.3	8.1	1.8	-2.8	0.7	1.1
Sa ugtP lethal	nt	3	-9	-4	5	15	5	-6	-1
BJeLR viability	7	-15	-3	3	nt	nt	-2	-1	0
Autofluor counter	4109	4205	3221	2902	4498	3222	3104	10154	5563

This is a random part of the collection. About 3.9% of those tested had a hit in this group.
